# gsp ag: qHTS for Agonist of gsp, the Etiologic Mutation Responsible for Fibrous Dysplasia/McCune-Albright Syndrome: qHTS; Potency, µM (top dose mostly 76.9 µM), without a hit: at the top dose activation (cAMP increase), usual class: activators; gsp mutant cells, cAMP HTRF, 30 min; control for the full effect not named in the record; AID 624287, 2012; 340,000 compounds, 0.13% hits; active = well fitted activation curve with a large enough effect; inconclusive = small, poorly fitted or top-dose-only effect, or another doubt; inactive = no such curve, though single readings can be large or run the other way; cell line not stated here;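 note: phosphodiesterase inhibitor Ro 20-1724 added with compounds to block cAMP breakdown; potency is the fitted concentration of half-maximal effect; nearly all actives have a fitted effect of over 60% in size; about a fifth of the inactives were tested at one dose only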
#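 Cells stably selected in G418 were plated at 2000/well, grown 16-24 hr, then given compounds in DMSO with the PDE inhibitor […] (300 uM solution added) for 30 min at 37C; cAMP was read by HTRF.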
# ClpP mod: qHTS Assay for Activators of ClpP | ATP-dependent Clp protease proteolytic subunit (Bacillus subtilis (strain 168)), P80244 | purified B. subtilis ClpP, FRET peptide cleavage, 20 min | Potency, µM (doses to about 57.5 µM), without a hit: at the highest dose activity change, negative = active | 340,000 compounds, 1.9% hits; active = well fitted falling curve with a large enough effect; inconclusive = small, poorly fitted or top-dose-only effect; inactive = no such curve, though single readings can be large or run the other way; note: potency is the fitted concentration of half-maximal effect; the source files actives as falling curves though it sought activators and does not explain the sign; nearly all actives have a fitted effect of over 65% in size; many hits overshoot -100%
# Target sequence (P80244 whole entry, looked up): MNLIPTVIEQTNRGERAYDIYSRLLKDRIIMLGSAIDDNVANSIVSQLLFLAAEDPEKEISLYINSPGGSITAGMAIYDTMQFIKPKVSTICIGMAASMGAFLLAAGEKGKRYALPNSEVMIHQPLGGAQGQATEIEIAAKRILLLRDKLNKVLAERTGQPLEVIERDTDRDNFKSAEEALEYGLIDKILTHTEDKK
#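 FRET quenching reversal measured ClpP activation: 10 microg/mL B. subtilis ClpP at pH 8 with the FRET-FV decapeptide, read at 430 nm after 320 nm excitation. The 20-min minus 0-min signal was scaled between DMSO/no-enzyme wells and ADEP (5.8 microM final).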
# gsp antagonist: qHTS for Antagonists of gsp, the Etiologic Mutation Responsible for Fibrous Dysplasia/McCune-Albright Syndrome: qHTS. gsp-mutant cells, cAMP HTRF, 30 min; control for the full effect not named in the record. Potency, µM (highest dose often 76.9 µM), for the others: top-dose activity change, negative = inhibition, usual class: inhibitors. 340,000 compounds, 0.4% hits. AID 624288, 2012; active = falling curve of any shape with a large fitted effect; inconclusive = falling curve, mostly with a smaller effect; inactive = flat or rising curve; cell line not stated here;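 note: intracellular cAMP measured with PDE inhibitor Ro 20-1724 present during compound exposure; potency is the fitted concentration of half-maximal effect; % is set by controls: 0 for no effect and ±100 for the full control effect; nearly all actives have a fitted effect of over 65% in size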
#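 HTRF cAMP read-out (cAMP-d2 plus anti-cAMP antibody-K in lysis buffer, 30 min RT). Before lysis, cells are exposed to compounds with […] for 30 min at 37C in DPBS containing Ca/Mg, BSA and Tween 20.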
# Menin MLL FP FL: qHTS Assay for Inhibitors Targeting the Menin-MLL Interaction in MLL Related Leukemias: Competition With Fluorescein Labeled MLL-derived Peptide; Fluorescence polarization, fluorescein-MLL peptide displacement from menin; FP activity change, % at 61.4 µM; 290,000 tested, under 10 active; inconclusive = falling polarisation curve, or a change in total fluorescence; inactive = total fluorescence flat and polarisation flat or rising; no compound was filed as active; the % refers to the polarisation; negative = inhibition;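 note: % of control where 0% means no effect; inhibitors lower the polarisation; unlabelled MLL peptide was the positive control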
# PINK1 expr mod: A Quantitative High throughput Screen to Identify Chemical Modulators of PINK1 Expression. 410,000 compounds, 0.2% hits. PINK1 immunofluorescence, high-content cytometry, 24 h. Potency, µM (doses to about 76.6 µM), inactives show top-dose activation (PINK1 increase), usual class: activators; active = well fitted activation curve with a large enough effect; inconclusive = small, poorly fitted or top-dose-only effect; inactive = flat fitted curve, though single readings scatter; cell line not stated here;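 note: potency is the fitted concentration of half-maximal effect; % of control where 0% means no effect; nearly all actives have a fitted effect of over 65% in size; a mitochondrial uncoupler was the plate control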
#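 Compound titrations (5 concentrations, 24 h) on a stable cell line; DMSO and CCCP controls. Endpoint: fixed-cell PINK1 immunofluorescence with mitochondrial, cell and nuclear markers, scanned by microplate cytometer.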
# Sfp PPTase inh: qHTS Assay for Inhibitors of Bacillus subtilis Sfp phosphopantetheinyl transferase (PPTase); 4'-phosphopantetheinyl transferase ffp (Bacillus subtilis), Q9F4F7; Biochemical Sfp PPTase activity, qHTS; Potency, µM, inactives show max response, negative = inhibition, hits mostly inhibitors; 310,000 compounds, 3.5% hits; active = well fitted inhibition curve with a large enough effect; inconclusive = small, poorly fitted or top-dose-only effect, or another doubt; inactive = no such curve, though single readings can be large or run the other way;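 note: the enzyme is Sfp with the accession as filed and its product quenches rhodamine fluorescence; potency is the fitted concentration of half-maximal effect; 0% = enzyme reaction without inhibitor and -100% = no enzyme wells; top concentration of the series not given in the record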
#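 Step 1, compound plus 15 nM Sfp-PPTase, 15 min, room temperature. Step 2, add rhodamine-CoA (5 uM) and BHQ-2-YbbR (12.5 uM). Step 3, read 525/598 nm fluorescence at 0 and 30 min.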
# D2 agonist: Beta-Arrestin HTS for Positive Allosteric Modulators of the Human D2 Dopamine Receptor: Agonists; D(2) dopamine receptor (Homo sapiens), P14416; DiscoveRx PathHunter D2 beta-arrestin, luminescence, 90 min; 100% = 57 uM dopamine signal; activation, % (no concentration beside the values); 360,000 compounds, 0.084% hits; AID 624465, 2012; in the data active = activation above about 40%; inconclusive = about 15% to 40%; inactive = below about 15%; note: compound concentration not given in the record; the text of the record calls up to 30% inactive
# Target sequence (P14416 whole entry, looked up): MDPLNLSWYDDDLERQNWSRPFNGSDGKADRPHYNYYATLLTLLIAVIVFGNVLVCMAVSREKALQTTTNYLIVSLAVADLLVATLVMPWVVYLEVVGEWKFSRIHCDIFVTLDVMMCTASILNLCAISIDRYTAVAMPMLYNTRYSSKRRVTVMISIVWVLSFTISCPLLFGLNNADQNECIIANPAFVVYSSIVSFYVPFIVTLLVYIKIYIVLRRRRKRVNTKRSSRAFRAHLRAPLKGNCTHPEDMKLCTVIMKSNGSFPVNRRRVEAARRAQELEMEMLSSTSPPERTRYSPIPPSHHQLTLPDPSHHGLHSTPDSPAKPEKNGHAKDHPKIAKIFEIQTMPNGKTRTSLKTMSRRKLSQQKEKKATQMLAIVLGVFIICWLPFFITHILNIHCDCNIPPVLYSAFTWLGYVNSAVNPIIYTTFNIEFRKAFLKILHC
#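 DiscoveRx PathHunter D2 beta-arrestin cells (2,100/well) attached overnight, then compound-stimulated 90 min at 37 C in HBSS/10 mM HEPES/0.1% Tween-20 buffer; beta-galactosidase complementation read by luminescence after 1 h at ambient temperature. Dopamine 57 uM final (EC100) as control.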
# Active calls of the source: *; ? = inconclusive; nt = not tested or not shown; & = joins results of further samples; [ ] = dose if it differs, or a comment.
SMILES,gsp ag,ClpP mod,gsp antagonist,Menin MLL FP FL,PINK1 expr mod,Sfp PPTase inh,D2 agonist
Cc1ccc(S(=O)(=O)N2[C@@H](c3ccc(Cl)cc3)C(C(=O)O)=CC[C@H]2c2cccs2)cc1,nt,-1.4%,-5%,nt,-0.3%,nt,-3.4
Cc1cc(C)nc(NS(=O)(=O)c2ccc(NC(=O)CSc3nc(-c4ccccc4)c(C#N)c(=O)[nH]3)cc2)n1,?,nt,28%,15,3.1%,27%,-0.8
S=c1[nH]nc(Cc2noc3ccccc23)n1-c1ccc(Cl)cc1,2%[15.4 µM],-1.9%,-13%,0.3,0.4%,-8%,-6.2
Cc1ccc(C(=O)NCCc2csc(-c3cccnc3)n2)cc1,?,-21%,-6%,6.4,3.1%,14%,-1.7
CCCCN(CC)C(=O)c1cc2cc3ccc(OC)cc3nc2o1,6%,?,-5%,0.9,-4.4%,5%,-3.4
CCCC(=O)Nc1ccc(S(=O)(=O)Nc2cc(OC)nc(OC)n2)cc1,9%,0.6%,0%,-9.7,-0.3%,6%,0.3
Cc1c(C(c2cccc(O)c2)c2c(C)n(C)n(-c3ccccc3)c2=O)c(=O)n(-c2ccccc2)n1C,-6%[15.4 µM],1.5%,4%,5.3,?,17%,-1.7
N#Cc1c(SCC(=O)Nc2ccccc2C(F)(F)F)sc2c(O)cc(=O)[nH]c12,8%,nt,-24%,14,1.0%,14µM*,6.4
O=C(O)C1CCN(c2ccc(S(=O)(=O)N3CCC(C(=O)O)CC3)cc2[N+](=O)[O-])CC1,15%[15.4 µM],-23%,13%,nt,2.3%,13%,-4.4
COC(=O)[C@H](CCSC)NC(=O)c1cccnc1SC,8%,-1.9%,6%,0.8,0.9%,14%,3.9
O=C(CSc1nnc(C2CC2)n1-c1ccccc1)NCCc1ccc(F)cc1,-9%,-2.1%,2%,-0.1,-1.8%,-4%,-0.4
COc1ccc(C(=O)Nc2ccc(S(=O)(=O)NC(C)C)cc2)cc1,-3%,1.8%,4%,2.5,2.0%[38.3 µM],0%,3.1
Cn1cc(CCNC(=O)CCc2nnc(CCCCc3ccccc3)o2)cn1,-2%[15.4 µM],nt,7%,0.5,-0.3%,-4%,1.4
COc1cc(CN2CCc3ccccc3C2)cc([N+](=O)[O-])c1O,2%,-3.1%,-6%,0.8,-0.6%,?,-1.7
O=C(Cn1nnc(-c2ccc(CN3CCOCC3)cc2)n1)N1CCCc2ccccc21,-2%,0.9%,3%,0.9,0.5%[38.3 µM],-6%,0.9
CCOC(=O)C1(CCc2ccccc2)CCN(C(=O)c2occc2C)CC1,25%[15.4 µM],nt,-6%,1.1,0.2%,-4%,2.4
O=C(C1CCCN(S(=O)(=O)c2cccc3nsnc23)C1)N1CCc2ccccc21 (stereo not drawn),15%,-0.4%,?,-1.6,1.3%,20%,-4.7
Cc1c(N2C(=O)c3ccc(F)cc3C2=O)c(=O)n(-c2ccccc2)n1C,-17%,1.1%,23%,0.9,0.2%,13%,-2.3
COc1cc(NC(=O)CCn2c(=S)[nH]c3ccccc3c2=O)cc(OC)c1OC,?,0.3%,nt,nt,0.5%,nt,-0.4
COc1ccc(C(=O)Nc2c(Cl)cc(Cl)cc2C(=O)NCCN2CCOCC2)cc1,-14%,-1.0%,15%,3.4,-0.9%,7%,-2.3
Cn1ccsc1=NC(=O)c1cc(S(=O)(=O)N2CCOCC2)ccc1Cl,-13%,-1.0%,-7%,nt,-3.6%,nt,0.5
CCOCC(=O)N1CCN(c2cccc(Cl)c2)CC1,7%[15.4 µM],nt,3%,-3.7,1.7%,9%,6.1
O=C(N/N=C/c1ccc(C(F)(F)F)cc1)c1ccncc1,1%[15.4 µM],-0.1%,-16%,-3.8,-0.7%,8%,4.2
Cc1cc(NC(=O)C2CC(=O)N(c3ccccc3Cl)C2)no1 (stereo not drawn),6%[15.4 µM],nt,10%,0.4,0.9%,11%,-1.9
O=C(CSc1nc(-c2ccccc2)cs1)NCCCN1CCCC1=O,-7%,0.2%,10%,nt,0.3%,nt,2.8
COC(=O)c1c(NC(=O)c2ccccc2)sc2c1CC(C)(C)OC2,-3%,-10%,3%,0.8,?,12%,2.0
O=C(Nc1nnc(-c2ccc(Cl)cc2)o1)C1CCCCC1,-92%,-20%,2%,5.5,10%,19%,2.3
Cc1ccc(Nc2c3c(nc4ccccc24)CCC3)cc1,-2%[15.4 µM],nt,-14%,-0.2,?,-6%,1.8
CCCSc1nn2c(=O)c3ccccc3nc2s1,24%,?,-4%,1.9,-2.2%,-2%,-3.9
Cn1c2c(c(=O)n(C)c1=O)C(C(F)(F)F)(C(F)(F)F)N=C(c1ccccc1Cl)N2,5%,-1.8%,?,2.5,-0.9%,-16%,-4.7
COc1ccc(Nc2nc(NN)nc(Nc3ccc(OC)cc3)n2)cc1,-11%,0.6%,-8%,-2.5,5.5%,14%,0.6
CCN(CC)CCNC(=O)c1ccc(NC(=O)/C=C/c2cc(OC)c(OC)c(OC)c2)cc1,16%,nt,12%,-7.4,1.7%,12%,-1.2
CCOC(=O)N1CCC(N2Cc3cccc(C(=O)Nc4ccc(S(=O)(=O)N(CC)CC)cc4)c3C2=O)CC1,-22%,-1.5%,-11%,6.3,1.4%,-1%,1.3
O=C(Nc1ccnn1C1CCN(C/C=C/c2ccccc2)CC1)c1ccccc1,?,-0.2%,-2%,-1.1,1.0%,0%,-0.2
O=C1c2ccccc2C(=O)N1CCn1c(=O)oc2ccccc21,-30%,-1.0%,15%,-1.8,-5.2%[38.3 µM],11%,-0.6
CCOC(=O)C1=Nc2ccccc2C1=[N+]=[N-],-5%,-12%,11%,-3.5,3.2%,23%,8.8
CCOc1ccc(S(=O)(=O)NCCC(=O)Nc2ncccc2C)cc1,26%,1.4%,0%,6.7,0.2%,6%,-4.8
Cc1ccc(S(=O)(=O)NCCNC(=O)c2ccccc2)cc1,2%,-4.2%,3%,2.8,0.7%,7%,-3.3
CC(=O)Nc1ccc(NC(=O)c2ccc(COc3ccc(C)cc3)o2)cc1,-1%,nt,2%,6.9,11%,8%,-2.4
CCOc1ccccc1OCCCCOc1ccccc1F,6%,-0.9%,-4%,-0.9,2.9%,15%,0.8
O=C(NCC(=O)N1CCCC(C(F)(F)F)C1)c1ccccc1F (stereo not drawn),?,2.3%,10%,nt,-0.1%,nt,0.6
CCOc1ccc(S(=O)(=O)Nc2ccc(C(=O)NCc3ccncc3)cc2)cc1,-42%[inhibitor],-0.5%,4%,nt,0.3%,nt,11
Cc1cc(C)nc(N(C#N)CCOc2ccccc2)n1,8%,-2.6%,2%,1.4,-0.5%,14%,-2.8
Cc1c(Cc2c(C)n(C)n(-c3ccccc3)c2=O)c(=O)n(-c2ccccc2)n1C,-14%,-1.2%,5%,4.5,-0.4%,-5%,0.3
COc1ccc(/C=C2\SC(=S)N(CCC(=O)Nc3cccc(C(=O)O)c3)C2=O)cc1,10%,0.1%,-11%,5.9,-0.4%,-12%,-0.9
CCOC(=O)CNC(=O)c1ccc2[nH]c3c(c2c1)CCCC3,-1%,-16%,0%,2.9,nt,18%,1.4
CCC(C)C(NC(=O)CCC(=O)OCC(=O)[C@@]1(O)CCC2[C@@H]3CCC4=CC(=O)C=C[C@]4(C)C3[C@@H](O)C[C@@]21C)C(=O)O (stereo partly drawn),-10%,-1.6%,11%,1.0,1.8%,16%,1.1
CCOC(=O)C1CCCN(C(=O)Nc2cccc(Cl)c2)C1 (stereo not drawn),0%,-0.3%,0%,-0.1,5.0%[38.3 µM],21%,1.2
C[C@H](NC(=O)c1nc[nH]c1C(=O)N[C@@H](Cc1ccccc1)C(=O)OCc1ccccc1)C(=O)OC(C)(C)C,1%,-1.4%,-10%,0.0,3.5%,21%,-0.9
Cc1ccc(Nc2nc(-c3sc(C)nc3C)cs2)cc1,9%,-9.3%,11%,-0.7,15%,?,-5.2
CCCn1nc(C(=O)Oc2ccc3c(C)cc(=O)oc3c2)c2ccccc2c1=O,0%[15.4 µM],30%,-12%,6.5,4.9%,-2%,9.9
Cc1cccc(N=Cc2cc(Br)cc(Cl)c2O)c1,3%[15.4 µM],nt,-34%,?,1.5%,-12%,-21
Cc1ccccc1NC(=O)C1CCCN(S(=O)(=O)c2cccc3cccnc23)C1 (stereo not drawn),18%,0.3%,-14%,4.5,0.9%,14%,-1.9
CCCCP(=O)(CCCC)Cc1ccccc1,3%,0.1%,4%,4.7,0.1%,22%,-2.6
CCCCc1nc2cc(C(=O)NCCc3c(C)n[nH]c3C)ccc2o1,-38%[inhibitor],-0.6%,4%,nt,0.6%,nt,2.6
COc1ccccc1N1CCN(C(=S)Nc2ccccc2)CC1,0%[15.4 µM],0.5%&-0.1%,2%,-0.3,-0.3%&-0.5%,4%,4.8&-1.6
CCOc1ccccc1N1CCN(C(=O)c2ccc(OCC(=O)N3CCOCC3)c(OC)c2)CC1,37%,-0.2%,2%,0.6,0.5%,7%,-2.4
CCN1CCS/C1=C\C=C\C1=[N+](CC)CCS1,-4%,0.1%,?,?,14µM*,4%,-7.4
O=[N+]([O-])c1cc(C(F)(F)F)ccc1NCCNC(=S)Nc1ccc(Cl)cc1,-5%,0.4%,-17%,-0.8,13µM*,13%,-0.3
O=C(Cn1c(=O)cnc2ccccc21)NC1CCC(O)CC1 (stereo not drawn),3%[15.4 µM],nt,15%,nt,2.5%,nt,-0.3
COc1nc(N(C)S(=O)(=O)c2ccc(C)cc2)nc(C)c1Cl,34%,-0.8%,-26%,0.3,?,10%,-4.2

# Screening results deposited in PubChem BioAssay by National Center for Advancing Translational Sciences (NCATS).
